# ALR inh: inhibitors of human sulfhydryl oxidase ALR. AID 485317. 3.8% of 290,000 active. inhibition, % (no concentration beside the values). purified ALR, DTT oxidation, H2O2 HRP-luminol luminescence. P55789;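 active = mean and each replicate at 75% or more; inconclusive = only one of the two met; inactive = neither met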;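 also: stock transfer was 7.5 nL into about 7.5 µL; 0% = neutral wells and 100% = wells with inactivated enzyme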
# Target sequence (P55789 whole entry, looked up): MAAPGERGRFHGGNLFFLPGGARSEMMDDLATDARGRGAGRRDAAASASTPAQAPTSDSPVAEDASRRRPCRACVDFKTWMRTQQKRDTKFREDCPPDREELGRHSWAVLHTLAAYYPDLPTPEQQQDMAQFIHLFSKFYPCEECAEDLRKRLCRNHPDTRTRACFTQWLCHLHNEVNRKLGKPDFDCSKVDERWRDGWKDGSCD
# Ecoli rRNA inh: selective bacterial rRNA inhibition in E. coli. E. coli WT GFP vs humanized-ribosome RFP mutants, fluorescence, 24 h; active compounds read low; DMSO median 0, no signal -100. GFP signal change (wild-type ribosome), % (concentration not given with the values). AID 720706. 1.6% of 350,000 active;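 active = significant combined selectivity score with lowered wild-type GFP, culture density cut under 30%, mutant RFP and density less affected; inactive = any of these conditions unmet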; also: one replicate is shown; some compounds called inactive have numbers as strong as hits
# UCH37 DUB inh: blocks the human deubiquitinase UCH37; purified proteasome/UCH37, Ub-AMC cleavage fluorescence; inhibition, % (no concentration beside the values); 0.33% of 330,000 active;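 active = mean of two replicates above 20%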;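 also: 0% = compound-free wells with enzyme and 100% = wells lacking proteasome; stock transfer was 100 nL into about 20 µL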
#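 Schedule: 30 min plus 25 min, room temperature / Material: human UCH37 within purified proteasomes / Technique: AMC fluorescence intensity at 355/460 nm / Buffer or medium: pH 7.4 Tris-HCl (50 mM) with ovalbumin, ATP-MgCl2, DTT / Controls: wells without proteasome as full block, compound-free enzyme plus substrate as uninhibited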
# E coli growth: E. coli growth inhibition. OD600 absorbance (concentration not given with the values). Escherichia coli growth, OD600, 23 h; active compounds read low. 0.21% of 330,000 active;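 active = OD600 absorbance below the run mean of sample wells minus 3.6 SD, in any replicate, cut at about 0.56 in these data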;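 also: stock transfer was 300 nL into about 60 µL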
# FGF22 binding: FGF22 (human) thermal shift binding; Q9HCT0; recombinant FGF22 thermal shift, SYPRO orange fluorescence; percent of sucrose octasulfate shift, DMSO zero; calls only at 9.99 µM; 1.5% of 340,000 active; AID 651658;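 active = melting point raised past a set limit in the mean and every replicate; inconclusive = no clear call; three in four hits are not shown here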
# Target sequence (Q9HCT0 whole entry, looked up): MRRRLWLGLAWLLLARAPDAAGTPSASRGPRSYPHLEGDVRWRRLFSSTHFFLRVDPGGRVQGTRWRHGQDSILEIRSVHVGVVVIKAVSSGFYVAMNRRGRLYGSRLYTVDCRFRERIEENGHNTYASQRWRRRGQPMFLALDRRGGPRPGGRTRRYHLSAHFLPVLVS
# Beta2AR agonist: agonists of human beta-2 adrenergic receptor inducing internalization; 0.43% of 340,000 active; Am2.2-beta2AR cells, FAP receptor internalization, flow cytometry; reference of the scale not given here; response, % (no concentration beside the values); AID 504454;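 active = response above a set limit, near 3 SD of response in nonfluorescent compounds, cut at about 42% in these data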;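 also: stock transfer was 100 nL into about 11 µL; a reference agonist was the positive control; negative values mostly stem from fluorescent compounds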
# HNF4A DNA FP: change in binding of human HNF4 alpha to DNA. HNF4a-FITC DNA binding, fluorescence polarization, 1 h. AID 1224865. activity change, % at 10 µM. P41235. 0.3% of 360,000 active; in the data active = activity change above about 30%, passing the limit was not always enough;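 also: controls were the assay level and a saturating level of protein; the project sought stronger binding though the title names inhibitors; some compounds called inactive have numbers as strong as hits; positive values seem to mean higher polarization but the record does not say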
# Target sequence (P41235 whole entry, looked up): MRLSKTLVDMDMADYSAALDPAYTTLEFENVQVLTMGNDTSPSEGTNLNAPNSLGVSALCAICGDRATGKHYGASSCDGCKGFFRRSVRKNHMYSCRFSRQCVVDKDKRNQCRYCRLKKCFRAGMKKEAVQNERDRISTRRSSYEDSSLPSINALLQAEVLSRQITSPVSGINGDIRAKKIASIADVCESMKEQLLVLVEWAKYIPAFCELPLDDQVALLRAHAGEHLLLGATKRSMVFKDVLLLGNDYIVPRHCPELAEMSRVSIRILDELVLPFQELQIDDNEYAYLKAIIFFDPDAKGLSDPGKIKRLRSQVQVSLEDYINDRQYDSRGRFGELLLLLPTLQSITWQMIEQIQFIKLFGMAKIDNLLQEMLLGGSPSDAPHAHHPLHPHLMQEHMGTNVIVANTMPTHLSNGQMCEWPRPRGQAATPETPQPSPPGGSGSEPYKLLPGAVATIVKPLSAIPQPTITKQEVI
# Ecoli rRNA inh OD600: recorded beside Ecoli rRNA inh, whose call it bears; OD600 change, %; measured here: OD600 growth;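 optical density of the mix in the first replicate; 0 = DMSO median and -100 = no signal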
# Ecoli rRNA inh RFP: recorded beside Ecoli rRNA inh, whose call it bears; RFP signal change, %; measured here: RFP humanized mutant strains;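 first replicate; 0 = DMSO median and -100 = no signal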
# Starred values were filed as active, the others as inactive; i = inactive; ? = inconclusive; / = no result given; & = joins results of further samples. Only part of the results is shown. The share of hits here may be higher or lower than overall.
SMILES,ALR inh,Ecoli rRNA inh,Ecoli rRNA inh OD600,Ecoli rRNA inh RFP,UCH37 DUB inh,E coli growth,FGF22 binding,Beta2AR agonist,HNF4A DNA FP
N#CCCn1c(SCC(=O)NCc2ccco2)nc2ccccc21,/,/,/,/,5.2,0.79,/,0,1.6
COc1ccc(C(C(=O)NCC2CCCO2)N(C(=O)CNC(=O)c2cccs2)c2ccc(C(C)=O)cc2)cc1OC (stereo not drawn),-3,9,15,-0.5,4.4,0.71,i,-1,-1.5
Cc1noc(C)c1C(=O)Nc1nc(-c2ccccc2Cl)cs1,-3,/,/,/,2.0,0.67,/,6,0.1
O=S(=O)(c1ccc2oc(=S)[nH]c2c1)N1CCCCC1,5,-3,-6,1.8,0.3,0.64,i,-76,-2.4
C=CCN1C(=O)/C(=C2\SC(N3CCOCC3)=NC2=O)c2cc(Br)ccc21,-4,/,/,/,0.9,0.71,/,-1,0.6
O=C(NCc1ccccn1)C1CC(c2ccc(Cl)c(Cl)c2)=NO1 (stereo not drawn),3,/,/,/,3.0,0.64,/,-6,1.1
CCS(=O)(=O)c1ccc(O)c(N2C(=O)C3C4C=CC(C4)C3C2=O)c1 (stereo not drawn),-9,/,/,/,0.6,0.69,/,22,1.6
Cc1ccc(NS(=O)(=O)c2ccc(OCC(=O)NCc3ccncc3)cc2)cc1,-5,/,/,/,0.5,0.69,/,0,-0.9
N#Cc1cc2c(nc1SCc1cccnc1)CCCC2,/,/,/,/,-5.6,0.66,/,-22,-2.5
CC(C)Cn1cc(F)c(=O)n(CC(C)C)c1=O,-3,0,15,0.0,-2.2,0.7,i,7,-0.6
COCCN(C(=O)c1ccccc1OC)c1nnc(C)s1,-8,10,5,-1.7,1.7,0.7,i,-2,2.1
Cc1c(NC(=O)c2ccc3c(c2)OCO3)cccc1-c1nc2ccccc2o1,/,/,/,/,0.2,0.69,/,0,2.1
Cc1[nH]c2c(C)cccc2c1CCNS(=O)(=O)c1cccc([N+](=O)[O-])c1,25,-18,-17,-1.5,1.7,0.72,i,-4,-2.1
O=C(Cc1n[nH]c(=O)c2ccccc12)OCC(=O)c1ccc2c(c1)OCCO2,-3,/,/,/,0.3,0.68,/,12,2.0
Cc1cc(C)n(CC(O)CN2C(=O)NC(C)(C)C2=O)n1 (stereo not drawn),/,/,/,/,3.0,0.73,/,1,-1.3
O=C(Nc1cccc(C2=NCCN2)c1)Nc1cccc(C2=NCCN2)c1,-5,/,/,/,1.5,0.66,i,2,-1.3
Cc1cc(C)cc(S(=O)(=O)c2cn(C)c3cc(N4CCN(C)CC4)c(F)cc3c2=O)c1,1,4,4,-0.9,-26,0.72,i,17,6.2
Cc1ccc(N(C)S(=O)(=O)c2c(C)[nH]c(C)c2C(=O)N2CCCC2)cc1,-7,1,3,-0.6,-1.5,0.72,i,6,1.5
COCCNC(=O)c1cc2c(=O)[nH]c3ccccc3c2s1,-7,-1,9,3.8,-265,0.63,i,2,0.1
CCOc1ccccc1OCC(=O)NN=C1CCCC(=O)C1,56,9,4,3.9,2.2,0.71,i,-2,2.4
CN(C)CC(C)(C)CNC(=S)Nc1ccc(S(=O)(=O)N2CCOCC2)cc1,7,15,15,-6.0,0.9,0.74,i,-1,0.6
CCn1ncc(CN2CCC(Oc3cc(C(=O)NC4CC4)ccc3OC)CC2)c1C,-5,7,11,-3.8,2.4,0.69,i,-6,0.7
Cn1c(COc2ccc(C(=O)O)cc2)nc2ccccc21,-1,3,-1,-1.3,-0.8,0.67,i,5,0.7
CCOc1ccc(/C=C2\SC(=S)N(CCC(=O)N(CCO)c3ccccc3)C2=O)cc1,-2,1,-2,-1.3,5.6,0.69,i,7,-0.9
Cn1cc(CN2CCC(CO)CC2)c(-c2ccc(Oc3ccccc3)cc2)n1,-4,2,-3,2.8,0.9,0.67,i,5,0.8
CCOc1ccccc1N(CC(=O)N/N=C(\C)c1cccc(Br)c1)S(C)(=O)=O,-9,17,12,3.6,/,/,i,3,0.2
COc1cccc(CNC(=S)Nc2ccc3c(c2)c(=O)n(C)n3Cc2csc(C)n2)c1,/,9,-6,0.6,/,/,i,/,-1.6
CCSc1nnc(NC(=O)C(C)(C)C)s1,-1,/,/,/,1.5,0.72,/,-4,-1.5
O=C(O)c1ccc(NC(CSCc2cccc(F)c2)C(=O)O)c([N+](=O)[O-])c1 (stereo not drawn),38,3,5,-0.6,5.1,0.68,i,11,1.5
O=S(=O)(Nc1ccccc1N1CCOCC1)c1c(F)cc(F)cc1Br,2,5,7,-0.2,4.2,0.71,i,17,-4.8

# Structural class, the entries above with bromine
SMILES,ALR inh,Ecoli rRNA inh,Ecoli rRNA inh OD600,Ecoli rRNA inh RFP,UCH37 DUB inh,E coli growth,FGF22 binding,Beta2AR agonist,HNF4A DNA FP
C=CCN1C(=O)/C(=C2\SC(N3CCOCC3)=NC2=O)c2cc(Br)ccc21,-4,/,/,/,0.9,0.71,/,-1,0.6
CCOc1ccccc1N(CC(=O)N/N=C(\C)c1cccc(Br)c1)S(C)(=O)=O,-9,17,12,3.6,/,/,i,3,0.2
O=S(=O)(Nc1ccccc1N1CCOCC1)c1c(F)cc(F)cc1Br,2,5,7,-0.2,4.2,0.71,i,17,-4.8

# (continued)
SMILES,ALR inh,Ecoli rRNA inh,Ecoli rRNA inh OD600,Ecoli rRNA inh RFP,UCH37 DUB inh,E coli growth,FGF22 binding,Beta2AR agonist,HNF4A DNA FP
COc1cccc(C(=O)NCC(=O)N2CCC(C)CC2)c1,0,/,/,/,0.4,0.73,/,-3,-1.8
O=C(NC1CCCCC1)c1cccnc1Sc1ccccc1,/,10,6,-2.8,2.1,0.66,i,-6,0.8
Cn1cnc2c(cnn2C)c1=N,/,10,22,-2.8,2.6,0.71,i,1,3.5
Cc1ccc(-n2c(C)cc(C)c(C#N)c2=O)cc1Cl,-3,/,/,/,-5.4,0.74,/,-2,0.9
CCN(CC)C(=O)CSc1nnc(-c2ccc(S(=O)(=O)NCc3ccccc3Cl)cc2)o1,0,/,/,/,3.0,0.76,/,-9,-2.2
CC(=O)Nc1cccc2c1Cc1cc([N+](=O)[O-])ccc1-2,/,-19*,3.5*,6.2*,/,/,i,-7,0.1
CN1CCOCCOCCN(C)C1=O,-11,/,/,/,-0.8,0.68,/,-3,-1.7
CCN1C(=O)CC(C(=O)Nc2ccc(F)cc2)SC1=Nc1cccc(OC)c1 (stereo not drawn),-3,/,/,/,-0.3,0.64,/,-1,-5.8
Cc1ccc(SCC(=O)NNC(=O)c2ccccc2)cc1C,-15,4,3,-2.4,0.0,0.63,i,5,-1.7
COCCNc1nnc(SCC(=O)NNC(=O)c2ccccc2)s1,7,3,5,-1.7,-1.6,0.67,i,1,4.7
COc1ccc(CCNC(=O)c2cc(-c3cc(Cl)ccc3O)n[nH]2)cc1OC,3,-3,2,0.5,4.0,0.72,i,6,-0.7
CCn1cc(/C=C(\NC(=O)c2ccccc2)C(=O)NCCCn2ccnc2)c2ccccc21,/,-2,-5,0.8,/,/,i,/,-2.0
CCOc1ccccc1-c1nc(C(N)=O)c2[nH]c(=O)n(-c3ccc(F)cc3)c2n1,/,13,15,-1.8,-58,0.75,i,-16,-2.1
O=C(O)CCCCCNS(=O)(=O)/C=C/c1ccccc1,1,5,4,-0.5,2.1,0.67,i,-6,0.1
O=c1onc(-c2ccccc2)n1Cc1ccc([N+](=O)[O-])cc1,/,5,11,1.9,/,/,i,/,-6.5
CCOC(=O)c1ccc(S(=O)(=O)Nc2ccc(N3CCOCC3)cc2)cc1,32,-6,2,3.0,0.1,0.71,i,2,1.3
CC(C)(C)C(=O)CSc1ccc(S(=O)(=O)N2CCCC2)cn1,/,10,4,4.1,-0.1,0.63,i,-1,3.6
COc1ccc2[nH]c(C(=O)N3CCc4ccccc4C3)c(C)c2c1,-34,-4,-7,2.0,-7.5,0.72,/,9,1.0
CCc1ccc(CCC(=O)Nc2ccc(Br)cc2)o1,5,-48,-62,-0.1,1.7,0.6,i,-7,1.7
COc1ccc([N+](=O)[O-])cc1NC(=O)Cc1c(Cl)cccc1Cl,-3,/,/,/,2.5,0.68,/,2,-2.3
Cc1ccc2[nH]c(=O)c(CN(Cc3nnnn3Cc3ccccc3)C3CCCC3)cc2c1,-65,/,/,/,1.6,0.71,/,-9,-1.8
COc1ccccc1C(=O)COC(=O)c1nc2nc(C)cc(C)n2n1,/,5,7,-0.1,0.4,0.66,i,-9,1.3
CC(=O)OCC1OC(n2ccc3ccccc32)C(OC(C)=O)C(OC(C)=O)C1OC(C)=O (stereo not drawn),-23,/,/,/,4.9,0.76,/,0,-2.1
Cc1csc(NC(=O)CCNC(=O)c2ccccc2Cl)n1,0,9,13,3.2,0.1,0.64,i,3,4.3
COc1ccc(NC(=O)CCC(=O)c2ccc(F)cc2)cc1,/,1,2,-0.8,/,/,i,2,-1.9
Cc1noc(C)c1S(=O)(=O)N(C)CC(=O)Nc1ccc(F)cc1,-2,/,/,/,5.0,0.7,/,-1,1.8
COc1ccc(CC(N)c2csc(NC(=O)Nc3ccc(F)cc3)n2)cc1 (stereo not drawn),/,1,-2,2.2,/,/,i,/,3.4
COc1ccc(C(=O)C2CCCN(Cc3cccn3-c3nccs3)C2)cc1F (stereo not drawn),1,-13,-14,0.0,-2.4,0.72,i,4,2.1
NS(=O)(=O)c1cccc(NS(=O)(=O)c2ccc(/C=C/C(=O)OCC(=O)c3ccc(Br)cc3)cc2)c1,?,4,15,0.3,0.5,0.69,i,-2,3.2
Cc1cc(OCC(=O)OCC(=O)NC2CCCC2)ccc1Cl,-2,10,2,-4.4,-0.2,0.72,i,-1,0.5
O=C(COC(=O)c1cccnc1Cl)Nc1ccc(S(=O)(=O)N2CCOCC2)cc1,-3,10,9,-1.5,-2.9,0.67,i,1,0.8
Cc1onc(-c2ccccc2)c1C(=O)N1CCN(C)CC1,2,/,/,/,1.3,0.66,/,-2,-55
COc1cc([N+](=O)[O-])cc(/C=N/NC(=O)C(C)Nc2cccc3ccccc23)c1O (stereo not drawn),-52,/,/,/,/,/,i,-3,1.5
COc1ccc(C(=O)c2coc3ccc(O)c(CN4CCCCC4)c23)cc1,4,-2,5,0.2,1.8,0.72,i,-5,-3.1
COc1ccc(S(=O)(=O)N(C)C[C@@H]2OCCCC[C@@H](C)Oc3ccc(NC(=O)NC(C)C)cc3C(=O)N([C@H](C)CO)C[C@@H]2C)cc1,/,2&0,-1&-9,-3.1&-2.9,/,/,i,/,0.7
O=C1c2ccccc2C(=O)N1c1nc(-c2cccs2)cs1,7,/,/,/,2.9,0.75,/,11,3.8
Brc1ccccc1OCCCCn1cnc2ccccc21,-162,-48,-77,-12,2.3,0.61,i,-6,-2.6
COc1ccccc1C(=O)C1CCCN(Cc2ccc(Oc3ncccn3)cc2)C1 (stereo not drawn),-2,6,1,0.4,-0.9,0.65,i,9,0.3
CNC(=O)C1Cc2c(-c3ccc(Cl)cc3)ccnc2O1 (stereo not drawn),/,1,-3,-0.8,/,/,i,/,-3.2
NC(Cc1ccccc1)c1csc(Nc2nccc(C(F)(F)F)n2)n1 (stereo not drawn),/,-9,-35,23,/,/,i,/,1.2
CN(C)/C=C(\C#N)C(=O)Nc1ccc(O)cc1F,99*,10,8,0.2,2.5,0.64,i,-10,4.0
CCc1ccc2c(COC(=O)CNS(=O)(=O)c3ccc(NC(C)=O)cc3)cc(=O)oc2c1,-9,10,9,4.4,4.3,0.71,i,-1,3.0

# High-throughput results (PubChem BioAssay)
